# Screens as filed in PubChem.
# Calb biofilm kill: mixture kills Candida albicans biofilm cells; C. albicans biofilm persisters + clotrimazole, fluorescence viability; primary screen in compound mixtures of four per well; inhibition, % at 7.6 µM; 0.02% of 120,000 active;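 active means inhibition above 30.3% in the primary screen of four-compound pools, then above 30% when the compound was retested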;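 further: compounds exposed to preformed 24 h biofilms for 48 h; the number belongs to the whole pool; some results filed as inactive read as strong as hits; inactives centre near 12; 0% = biofilm with clotrimazole alone and 100% = kill control; retested singly at about 60 µM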
#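 Probe or stimulus – Clotrimazole 50 µg/mL co-treatment · System – C. albicans biofilms · Schedule – 24 h biofilm formation, then 48 h compound exposure, 37 °C · Evaluation – percent inhibition of biofilm viability · Technique – 2-h Alamar Blue fluorescence, 535/590 nm excitation/emission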
# The depositor's hits bear a star. Not all compounds are listed, so the mix of outcomes need not match the whole.
molecule | Calb biofilm kill
O=P(c1ccccc1)(c1ccccc1)C(O)c1ccccn1 (configuration not stated) | 14.9
O=C(Nc1nc2ccccc2s1)C1CCN(S(=O)(=O)c2cc([N+](=O)[O-])ccc2Cl)CC1 | 8.3
CCNc1ccc(N=Nc2c(C)n(C)n(-c3ccccc3)c2=O)cc1 | 4.7
CCCCCC(=O)N=Nc1c(O)[nH]c2ccc([N+](=O)[O-])cc12 | 8.1
COC(=O)c1cc(C(=O)c2cc(Br)ccc2O)coc1=N | 1.8
c1ccc(COC2CCCN(Cc3nc(Cc4ccccc4)no3)C2)cc1 (configuration not stated) | -9.4
O=C(Cn1c(-c2cscn2)nc2ccccc21)Nc1ccc(Cl)cc1 | 11.0
Cc1ccc(CSc2ccc(-c3ccco3)nn2)cc1 | 15.7
Cc1ccc(/C(=N\O)c2oc3c(C)c4oc(=O)cc(C)c4cc3c2C)cc1 | 15.3
O=C(NC(=S)Nc1ccccc1N1CCCCC1)c1ccco1 | 13.3
CC(=O)Nc1ccc(N(C(=O)c2ccco2)C(C(=O)NC2CCCC2)c2ccc(N3CCOCC3)cc2)cc1 (configuration not stated) | -1.4
O=C(NCCNS(=O)(=O)c1ccc(C(F)(F)F)cc1)N1CCOCC1 | 11.8
S=c1[nH]nc(CN2CCCCC2)n1Cc1ccccc1 | 8.9
Cc1nn(-c2cccc(Cl)c2)c2nc(C(F)(F)F)[nH]c(=O)c12 | 0.9
Cc1ccc(-n2ncc3c(=O)n(CC(=O)N4CCCc5ccccc54)cnc32)cc1C | 12.9
C=CCN(C(=O)c1csnn1)C(C(=O)NC(C)(C)C)c1ccncc1 (configuration not stated) | 14.5
Cc1ccc(-c2nnn(CC(=O)NC3CCN(Cc4ccccc4)CC3)n2)cc1 | 12.8
CCC1CCCCN1Cc1nc2ccccc2c(=O)n1CC(C)=O (configuration not stated) | 19.8
CCOC(=O)C1(Cc2ccccc2C(F)(F)F)CCN(CC(O)CO)CC1 (configuration not stated) | 11.4
CCCC/C(C)=N/NC(=O)c1cn(-c2ccccc2)nc1-c1ccccc1 | 17.7
COc1ccc(CC(=O)Nc2ccc(C(=O)NC(C)(C)C)cc2)cc1OC | 6.7
CCOP(=O)(OCC)/C(=C/N1CCCCC1)NC(=O)c1ccccc1 | 1.1
COc1cc(NC(=O)CCCl)cc(-n2cnnn2)c1 | 16.0
CCCCOC(=O)CSC(=S)N(C)Cc1cccs1 | 7.9
Cc1ccc(S(=O)(=O)N2CCN(C(=O)c3cccs3)CC2)c(C)c1 | 14.1
COc1ccccc1NC(=O)COC(=O)/C=C/c1ccccc1[N+](=O)[O-] | 12.0
CC(C)Oc1ccc(/C=N/NC(=O)C(CSCc2ccccc2)NC(=O)c2ccc([N+](=O)[O-])cc2)cc1 (configuration not stated) | 16.1
O=C(CC1Nc2ccccc2NC1=O)Nc1ccc2c(c1)OCO2 (configuration not stated) | 8.2
Cc1cc(NC(=O)CN2C(=O)NC(C)(c3ccc(Cl)cc3)C2=O)no1 (configuration not stated) | 7.4
CC(C)(C)c1cc(-c2nc(N)nc(N)n2)cc(C(C)(C)C)c1 | 8.4
CCOC(=O)c1sc(=S)n(C)c1NC(=O)c1ccc(C(C)(C)C)cc1 | 22.6
CC1=C(C(=O)OC(C)C)[C@@H](c2ccc(C)o2)NC(=O)N1 | 17.3
COc1ccc(/C=C2/N=C3CCCCCN3C2=O)cc1 | 7.7
O=C(NCCc1c[nH]c2ccccc12)OCCSS(=O)(=O)O | 4.8
O=C1c2cccc3cccc(c23)C(=O)N1Nc1ccccc1 | 8.1
NC(=S)Nc1cccc(Cl)c1 | 10.6
O=C(c1cnn2c(C(F)F)cc(-c3ccccc3)nc12)N1CCc2ccccc21 | 12.8
O=C(Nc1ccc(F)cc1)C1CCN(C(=O)c2ccc([N+](=O)[O-])cc2)CC1 | -1.8
CC1CC(=O)N(c2ccc(NCc3ccccc3Cl)c([N+](=O)[O-])c2)C1=O (configuration not stated) | 15.7
COc1cccc(-c2c(C#N)c(N)nc3c2c(=O)nc2sccn23)c1 | 16.0
COc1ccc(C(=O)NCc2nnc(SCCOc3ccccc3)n2C)cc1 | 13.6
Cc1cccc(C)c1NC1=C(Cl)C(=O)OC1OC(C)C (configuration not stated) | 16.2
Cc1[nH]c2ccccc2c1C(=O)C(=O)N1CCN(C)CC1 | -1.3
Cc1ccc(C)n1-c1nn(S(=O)(=O)c2cccc(C(F)(F)F)c2)c2cccc(F)c12 | -6.1
CN(C)C(=C(C#N)C#N)N1CCN(c2ccc(Cl)cc2)CC1 | 12.5
CCc1ccc(NC(=O)c2c(Cl)nc(C)c(Cl)c2C)cc1 | 13.5
Fc1ccccc1-n1cn[nH]c1=S | 9.5
CC(C)CNS(=O)(=O)c1ccc(OCC(=O)NCc2ccco2)cc1 | -10.6
CC(Oc1ccccc1)C(=O)NN1Cc2ccccc2C1=N (configuration not stated) | 7.5
CC(C)(C)C1=CC(=O)C(=O)C(C(C)(C)C)=C1 | 16.2
CC(c1ccccc1)N1C(=O)c2ccccc2C1(O)Cc1ccccc1 (configuration not stated) | 18.5
COc1ccc(OC)c(NC(=O)CSc2nnc(C3CCCCC3)n2-c2ccccc2)c1 | 14.9
COc1ccc(NS(=O)(=O)c2cccc(C(=O)N/N=C/c3cn(-c4ccccc4)nc3-c3ccc(OC)cc3)c2)cc1 | 23.3
O=c1[nH][nH]c(-c2ccccc2O)c1C(C[N+](=O)[O-])c1ccc(Cl)cc1Cl (configuration not stated) | 7.5
COCCCNC(=O)C1CCC(CNS(=O)(=O)c2ccc(Cl)cc2)CC1 (configuration not stated) | 4.7
CSc1ncc2ncn(C3OC(CO)C(O)C3O)c2n1 (configuration not stated) | 11.6
CC(NC(=O)NNC(=O)c1ccncc1)(C(F)(F)F)C(F)(F)F | 14.4
Cc1ccc(CNC(=O)C(=O)NCC2OCCN2C(=O)c2ccc(Cl)cc2)cc1 (configuration not stated) | -1.6
N#C/C(=N\Nc1ccc(Cl)cc1)C(N)=S | 14.6
Cc1ccc(/C=N/NC(=O)CN2CCN(Cc3ccccc3)CC2)s1 | 15.9

# Next part:
molecule | Calb biofilm kill
CCOC(=O)C1(CCCc2ccccc2)CCN(C(=O)CCn2cnnn2)CC1 | 21.7
CC1Nc2ccccc2C(=O)N1NC(=O)c1ccc(Br)cc1 (configuration not stated) | 12.6
CC(=O)CSc1ncnc2sc3c(c12)CCC(C)C3 (configuration not stated) | 17.4
COc1ccccc1/C=N/OCC(=O)NCc1ccc2c(c1)OCO2 | 10.6
CCOC(=O)C1CCCN(C(=O)C(C)(C)Oc2ccc(Cl)cc2)C1 (configuration not stated) | -6.7
CC(=O)c1cc(F)c(N2CCN(CCC#N)CC2)cc1C | 19.4
O=C(COC(=O)CCCOc1ccc(Cl)cc1Cl)NCc1ccccc1 | 21.6
Nc1c(Cl)nc(-c2ccccc2)nc1Cl | 12.3
Cn1ncc2c(=O)n(/N=C/c3ccccc3)cnc21 | -17.1
O=C(/C=C/c1ccc2c(c1)OCO2)NCC1CCCO1 (configuration not stated) | 14.8
CCOc1ccc(N2CC(C(=O)NCCN3C(=O)S/C(=C\c4ccc(OC)c(OC)c4)C3=O)CC2=O)cc1 (configuration not stated) | 17.6
CC1CN(C(=O)c2cccn(Cc3c(Cl)cccc3Cl)c2=O)CC(C)O1 (configuration not stated) | 15.4
CCC(c1nnnn1Cc1ccccc1)N1CCN(c2ccccc2)CC1 (configuration not stated) | 2.1
Cc1nc(NC(=O)/C=C/c2ccccc2)sc1C(=O)N(C)C | 5.7
COC(=O)[C@@]1(Cc2ccccc2)[C@H]2c3cc(C(=O)N4CCCC4)n(Cc4ccsc4Br)c3C[C@H]2CN1C(=O)c1ccccc1 | 13.2
CC(=O)N(C1=C(Cl)C(=O)c2ccccc2C1=O)C1CCCCC1 | 14.6
CC(=O)c1cccc(S(=O)(=O)NC2CC2)c1 | 17.8
CCN1CCN(c2cc(C)c3cc(NC(=S)N4CC(C)CC(C)C4)ccc3n2)CC1 (configuration not stated) | 14.8
CCOC(=O)C1=C(NC(=S)NC(=O)c2ccccc2)c2ccccc2CC1(C)CC (configuration not stated) | 14.1
CC(C)CC(CC(C)C)=NNC(=O)c1ccc(CSc2nncn2C)cc1 | 11.3
C[C@]12C=CC(=O)C=C1CCC1C3CC[C@](O)(C(=O)CO)[C@@]3(C)CC3OC312 (some centres not stated) | 14.4
CC/C(=N\NC(=O)c1cccnc1)c1ccc2c(c1)OCCO2 | 18.6
C=CCc1c(C)[nH]c(=O)[nH]c1=O | 2.1
C/C(=N\NC(=O)c1c(C)nc2ccccn12)c1ccco1 | 11.7
CC1Cc2ccccc2N1C(=O)CN1CCC(C(N)=O)CC1 (configuration not stated) | 11.7
Cc1ccc(C(=O)/C=C/C(=O)c2ccc(C)cc2)cc1 | -6.7
c1cnc(Sc2ccc3nnnn3n2)nc1 | 5.8
CSc1nsc(SCC(=O)Nc2ccc(OC(C)=O)cc2)n1 | -3.0
Brc1ccc(-c2ccc(/C=N/Nc3nc4ccccc4[nH]3)o2)cc1 | 3.8
COCCNC(=O)Cn1cnc([N+](=O)[O-])n1 | 11.8
CCOc1ccc(N2C(=O)CC(N(CCc3ccccc3)C(=O)/C=C/C(=O)O)C2=O)cc1 (configuration not stated) | 7.5
CC(C)(C)c1cc[n+](C2=C([O-])c3ccccc3C(=O)/C2=N\S(=O)(=O)c2cccs2)cc1 | 2.7
CCOC(=O)C1CCN(C(=O)C2(NC(=O)Nc3cccc(F)c3)CCCCC2)CC1 | 7.8
CCN(CC)CCn1c(NC(=O)c2ccc(C(F)(F)F)cc2)nc2ccccc21 | 12.6
CCOc1cc(/C=N/NS(=O)(=O)c2ccc(OC)cc2)ccc1OCCN1CCOCC1 | -11.7
CCCCCn1cnc2c(sc3nc4c(cc32)CSC(C)(C)C4)c1=O | 17.2
Cc1nnc(Nc2ccccc2F)s1 | 16.6
Cc1nnc(SCC(=O)Nc2cc(-c3cc(C)c(C)cc3C)nn2-c2ccccc2)s1 | 7.3
COC(=O)c1sccc1NC(=O)Cc1ccc(OC)cc1 | 9.0
C/C(=N\N=C\c1ccccc1F)c1nnn(-c2nonc2N)c1C | 22.3
O=C(Nc1nc2ccccc2[nH]1)c1cc2ccccc2o1 | 18.6
O=C(COC(=O)C1CCN(C(=O)Nc2ccccc2)CC1)NCC(F)(F)F | -4.5
O=C(O)Cc1ccc(N=Cc2c(O)ccc3ccccc23)cc1 | 13.8
CCCCN(C(=O)Cc1cccs1)c1nnc(-c2cccnc2)s1 | 4.6
Cc1ccccc1NC(=O)C1C2CC/C=C\CCC21 (configuration not stated) | -6.7
O=C(Cn1cnc2ccccc21)N/N=C/c1ccco1 | 2.5
Cc1csc2c(=O)n(CCO)c(=O)[nH]c12 | 22.1
CC(C)(C)NC(=O)NC12CC3CC(CC(C3)C1)C2 | 13.0

# Looked up one by one from the list above (2):
molecule | Calb biofilm kill
Cc1nnc(SCC(=O)Nc2cc(-c3cc(C)c(C)cc3C)nn2-c2ccccc2)s1 | 7.3
O=C(COC(=O)C1CCN(C(=O)Nc2ccccc2)CC1)NCC(F)(F)F | -4.5

# Following part
molecule | Calb biofilm kill
O=C(CCC(=O)Nc1ccc(Br)cc1)N/N=C/c1cc([N+](=O)[O-])ccc1O | 6.4
CN(CC(=O)NNC(=O)c1cccnc1)S(=O)(=O)c1cc(Cl)ccc1Cl | 20.4
O=C(CN1CCN(Cc2ccccc2Cl)CC1)N/N=C/c1ccccn1 | -6.7
C[C@@H](C(=O)NCCCCCC(=O)O)n1nnc2ccccc2c1=O | 9.9
CC(=O)NC1=NC(=O)/C(=C/c2cc(C)n(-c3cccc(C(=O)O)c3)c2C)S1 | 14.6
Cc1nc2scc(-c3cccs3)c2c(=O)n1N | 15.3
COc1cccc(C2Nc3c(F)cc(Br)cc3C3C=CCC32)c1OC (configuration not stated) | 11.1
C[C@@H]1CN(Cc2nc(-c3cnccn3)no2)C[C@H](C)O1 | 16.2
NS(=O)(=O)c1cccc(NC(=O)COC(=O)Cc2ccc(S(=O)(=O)N3CCCCC3)s2)c1 | 10.1
CCCn1nnc2c(=O)oc3ccccc3c21 | 12.1
CCOC(=O)c1cnn(-c2ncnc3sc(CC)cc23)c1N | 10.8
CC(C)N1C(=O)CC(Nc2cccc3cccc(N)c23)C1=O (configuration not stated) | 20.9
CCOC(=O)COc1ccc(/C=C2\NC(=S)N(CC)C2=O)cc1 | 10.2
Cc1cc(C)c(NC(=O)Cn2nnc(C(=O)NCc3ccco3)c2N)c(C)c1 | 6.0
O=C(N/N=C/C=C/c1ccccc1)c1cc(C2CC2)[nH]n1 | 17.6
CN(c1ccc(OCC(=O)OCC(=O)Nc2ccc(Br)cc2)cc1)S(=O)(=O)c1cccs1 | -1.2
O=C(CSc1ccc(-c2cccc([N+](=O)[O-])c2)nn1)N1CCCC1 | 14.6
O=C(NC(=S)Nc1ccccc1N1CCCC1)c1cccc(F)c1 | 13.3

# Filtered by structure: the compounds so far with a CF3 group (seven)
molecule | Calb biofilm kill
O=C(NCCNS(=O)(=O)c1ccc(C(F)(F)F)cc1)N1CCOCC1 | 11.8
Cc1nn(-c2cccc(Cl)c2)c2nc(C(F)(F)F)[nH]c(=O)c12 | 0.9
CCOC(=O)C1(Cc2ccccc2C(F)(F)F)CCN(CC(O)CO)CC1 (configuration not stated) | 11.4
Cc1ccc(C)n1-c1nn(S(=O)(=O)c2cccc(C(F)(F)F)c2)c2cccc(F)c12 | -6.1
CC(NC(=O)NNC(=O)c1ccncc1)(C(F)(F)F)C(F)(F)F | 14.4
CCN(CC)CCn1c(NC(=O)c2ccc(C(F)(F)F)cc2)nc2ccccc21 | 12.6
O=C(COC(=O)C1CCN(C(=O)Nc2ccccc2)CC1)NCC(F)(F)F | -4.5
